Assay outcomes deposited in PubChem BioAssay by National Center for Advancing Translational Sciences (NCATS).
PINK1 expr mod: modulators of PINK1 expression; hit rate 0.2% among 410,000; PINK1 immunofluorescence, high-content cytometry, 24 h; Potency, µM (top dose mostly 76.6 µM), for inactives: at the highest dose activation (PINK1 increase), usual class: activators; active = well fitted activation curve with a large enough effect; inconclusive = small, poorly fitted or top-dose-only effect; inactive = flat fitted curve, though single readings scatter; cell line not stated here;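 further: potency means the concentration at half of the fitted maximal effect; % of control where 0% means no effect; nearly all actives have a fitted effect of over 65% in size; a mitochondrial uncoupler was the plate control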
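Cells are seeded, rested 12 hours, then given compound at five concentrations or DMSO for 24 hours. After fixation, blocking and antibody staining, PINK1 amount and mitochondrial localization are scored; CCCP serves as control.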
D2 agonist: activates the human D2 dopamine receptor. activation, % (test concentration not listed). DiscoveRx PathHunter D2 beta-arrestin, luminescence, 90 min; 100% = 57 uM dopamine signal. hit rate 0.084% among 360,000. AID 624465; in the data active = activation above about 40%; inconclusive = about 15% to 40%; inactive = below about 15%; further: compound concentration not given in the record; the text of the record calls up to 30% inactive
Target sequence (P14416 whole entry, looked up): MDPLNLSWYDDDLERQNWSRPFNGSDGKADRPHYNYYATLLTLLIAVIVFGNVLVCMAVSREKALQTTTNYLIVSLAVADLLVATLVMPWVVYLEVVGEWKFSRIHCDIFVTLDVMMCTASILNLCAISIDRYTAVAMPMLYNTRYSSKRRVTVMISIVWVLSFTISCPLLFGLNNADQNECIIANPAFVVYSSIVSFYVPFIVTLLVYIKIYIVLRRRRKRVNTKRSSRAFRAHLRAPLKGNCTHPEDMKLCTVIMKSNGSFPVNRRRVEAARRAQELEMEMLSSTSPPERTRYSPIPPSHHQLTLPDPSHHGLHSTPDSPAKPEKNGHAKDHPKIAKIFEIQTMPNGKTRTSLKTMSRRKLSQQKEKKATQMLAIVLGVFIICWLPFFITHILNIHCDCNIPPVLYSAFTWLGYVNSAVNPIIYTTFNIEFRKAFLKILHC
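Agonist mode: compounds alone added to overnight-plated D2 PathHunter cells for 90 min at 37 C, with 57 uM final dopamine (EC100) defining full response. Beta-arrestin recruitment detected by chemiluminescent reagent, read after 1 h at ambient temperature.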
D2 PAM: human D2 receptor positive allosteric modulation | P14416 | DiscoveRx D2 beta-arrestin cells, luminescence, 90 min; 100% = 57 uM dopamine signal | potentiation, % (concentration not given with the values) | hit rate 0.23% among 360,000; active = potentiation of 50% or more; inconclusive = 30% to 50%; inactive = 30% or less;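 further: compound concentration not given in the record; tested on top of an EC20 dose of dopamine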
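D2 cells co-treated with compound plus 50 nM dopamine (EC20) for 90 min at 37 deg C to detect potentiation. Beta-arrestin recruitment was read as enzyme-fragment luminescence after 1 h at ambient temperature. Full response was set by 57 uM dopamine.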
Six1-Eya2 blk: inhibitors of human Six1/Eya2 interaction | Q15475+O00167 | AlphaScreen GST-Six1/His-Eya2 binding, biochemical; hits give low values; control for the full effect not named in the record | activity change, % (concentration not given with the values) | hit rate 0.56% among 360,000 | AID 651725; in the data active = activity change below about -65%; inconclusive = about -30% to -65%; inactive = above about -30%; further: on the % scale 0 is the no-effect control and ±100 the full control effect
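Six1/Eya2 binding was read as AlphaScreen signal after compounds were pinned into GST-Six1 plus His-tagged Eya2 (5X stock 250/500 nM) in pH 8.0 Tris/NaCl/TCEP buffer, beads added, then incubated 1 h, 37 C, dark.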
TRPML1 agonist: human mucolipin-1 channel agonism; Q9GZU1; TRPML1-expressing cells, Ca2+ dye fluorescence, FDSS; host cell line not named in the record; reference of the full effect not given here; activation, % (test concentration not listed); hit rate 0.12% among 410,000; in the data active = activation above about 50%; inconclusive = about 30% to 50%; inactive = below about 30%; further: 0% is about no effect; the text of the record puts the active cut at 80%
Target sequence (Q9GZU1 whole entry, looked up): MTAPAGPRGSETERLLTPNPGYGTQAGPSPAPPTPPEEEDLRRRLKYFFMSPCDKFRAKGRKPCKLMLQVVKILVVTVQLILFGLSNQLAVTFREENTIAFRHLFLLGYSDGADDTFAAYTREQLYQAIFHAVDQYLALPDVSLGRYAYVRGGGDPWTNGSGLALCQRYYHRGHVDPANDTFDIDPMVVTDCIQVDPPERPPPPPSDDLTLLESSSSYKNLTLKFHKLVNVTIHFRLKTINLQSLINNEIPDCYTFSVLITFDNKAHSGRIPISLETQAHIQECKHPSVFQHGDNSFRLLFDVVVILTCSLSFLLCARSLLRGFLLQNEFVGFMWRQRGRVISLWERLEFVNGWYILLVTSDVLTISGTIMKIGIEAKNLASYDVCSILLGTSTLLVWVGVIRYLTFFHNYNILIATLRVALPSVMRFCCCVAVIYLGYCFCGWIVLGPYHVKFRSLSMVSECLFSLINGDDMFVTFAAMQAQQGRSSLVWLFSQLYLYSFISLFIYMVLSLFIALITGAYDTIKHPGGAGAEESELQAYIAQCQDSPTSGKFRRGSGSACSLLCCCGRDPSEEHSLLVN
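Kinetic FDSS Ca2+ read in Tet-induced TRPML1-DL cells (ABD Ca8 dye plus quencher, 45-90 min RT loading): baseline, then compound, then 110 s agonist window; EC80 agonist 54-4 at 4uM final added afterwards for a 110 s antagonist window.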
TRPML1 inh: inhibitors of human TRPML1 channel. Q9GZU1. TRPML1-inducible cells, Ca2+ dye fluorescence, FDSS; hits give low values; inhibition of EC80 agonist-evoked calcium signal. activity change, negative = inhibition, % (no concentration beside the values). hit rate 0.02% among 390,000; in the data active means activity change below about -50%; inconclusive means about -30% to -50%; inactive means above about -30%;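 further: stimulus is agonist 54-4 at its EC80 concentration; on the % scale 0 is the no-effect control and ±100 the full control effect; compound concentration not given in the record; the text of the record puts the active cut at -80%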
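Tet-induced TRPML1-DL cells loaded with Ca8 no-wash calcium dye were read kinetically on FDSS. Compound addition was followed by EC80 agonist 54-4 (4 uM final); inhibition was read over 110 s.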
* hit, by the source's call; u = inconclusive; x = not tested or not shown; & = joins results of further samples; [ ] = remark or other dose.

SMILES | PINK1 expr mod | D2 agonist | D2 PAM | Six1-Eya2 blk | TRPML1 agonist | TRPML1 inh
COc1ccccc1C(=O)NC(=O)COC(=O)c1ncc(Cl)c(Cl)c1Cl | 8.0% | -6.6 | -17.5 | 0.0 | 1.2 | 0.4
COCCCNC(=O)c1cc2c(=O)n3cccc(C)c3nc2s1 | 5.4%&3.9% | 1.7 | -10.6 | 1.7 | 0.2&0.9 | -16.8&27.2
Cc1ccc(NC2CCCCC2NS(=O)(=O)c2ccccc2)c(C)c1 (configuration not stated) | 4.4% | -2.8 | -13.5 | -28.5 | -0.7 | 11.9
CCN1CCN(CC(=O)N2c3ccccc3CC2C)CC1 (configuration not stated) | -3.1%[38.3 µM] | -1.4 | -11.2 | -13.9 | -0.2 | 4.7
C[C@H](CO)N1C[C@H](C)[C@@H](CN(C)C(=O)c2cc(-c3ccccc3)on2)OCc2cn(nn2)CCCC1=O | -0.2% | -6.9 | 0.4 | 2.8 | -0.1 | -1.0
CCOC(=O)CN1C(=O)N(CC)C(C)=C(C(=O)OC)[C@@H]1c1ccccc1 | 0.0% | -2.2 | 1.8 | -0.4 | 0.5 | -9.9
COc1nc(-c2ccccc2)nc(C)c1CC(=O)O | 2.8% | 0.2 | 6.8 | -14.3 | -0.3 | -14.0
Cc1ccc(/C=N/n2nnnc2N)o1 | 0.4% | 3.1 | 2.1 | 1.9 | 0.4 | -11.1
CCc1nc2scc(-c3ccc(C)cc3)c2c(=O)n1N | 1.9% | 1.9 | -6.5 | 3.9 | 1.7 | 4.8
Cc1cc(C)cc(C(=O)NCC(=O)OCC(=O)N2CCCC2)c1 | 2.2% | -2.8 | -8.6 | 3.9 | -0.7 | -8.2
Nc1ccc2oc3ncccc3c(=O)c2c1 | 7.3%[38.3 µM] | 0.4 | 3.1 | -15.9 | -0.1 | 26.8
O=C(COc1ccc(F)cc1)OCc1cc(=O)n2nc(C3CC3)sc2n1 | 1.7% | x | x | x | 1.0 | -13.3

Whole records as entered above.
Profile of Cc1ccc(/C=N/n2nnnc2N)o1 : PINK1 expr mod = 0.4%; D2 agonist = 3.1; D2 PAM = 2.1; Six1-Eya2 blk = 1.9; TRPML1 agonist = 0.4; TRPML1 inh = -11.1
Profile of CCc1nc2scc(-c3ccc(C)cc3)c2c(=O)n1N : PINK1 expr mod = 1.9%; D2 agonist = 1.9; D2 PAM = -6.5; Six1-Eya2 blk = 3.9; TRPML1 agonist = 1.7; TRPML1 inh = 4.8
Profile of C[C@H](CO)N1C[C@H](C)[C@@H](CN(C)C(=O)c2cc(-c3ccccc3)on2)OCc2cn(nn2)CCCC1=O : PINK1 expr mod = -0.2%; D2 agonist = -6.9; D2 PAM = 0.4; Six1-Eya2 blk = 2.8; TRPML1 agonist = -0.1; TRPML1 inh = -1.0

Next entries follow.
SMILES | PINK1 expr mod | D2 agonist | D2 PAM | Six1-Eya2 blk | TRPML1 agonist | TRPML1 inh
CCCCCc1cc(=O)[nH]c(=S)[nH]1 | 2.2% | 1.8 | -3.9 | 5.6 | -0.1 | 1.2
Cc1ccc(-c2nc(C3CCCN(S(=O)(=O)c4ccc(C)cc4)C3)no2)cc1 (configuration not stated) | 1.2% | -2.7 | -0.7 | -2.6 | 0.3 | 81.6
C=CCN1C(=O)CSc2ccc(C(=O)NCc3ccc(F)cc3)cc21 | -0.7% | 0.4 | -20.8 | 2.1 | -1.7 | 2.6
CNC(=O)C(=O)NCC1CCCN1S(=O)(=O)c1cccs1 (configuration not stated) | 2.8% | 3.4 | -2.3 | 2.9 | -0.2 | -2.2
Cc1cc2c(c(SCC(=O)NCc3ccccc3Cl)n1)C(=O)OC2 | 0.6% | 0.0 | 0.7 | 6.3 | -0.5 | 0.5
Cc1ccc([C@H]2C[C@H](n3cc(-c4ccc(F)cc4)nn3)[C@@H](O)CN2CC2CCCCC2)cc1 | 22.9% | -11.2 | -1.0 | 8.9 | 0.3 | 46.4
COc1ccc(C(CNS(=O)(=O)c2ccccc2)N2CCN(C)CC2)cc1 (configuration not stated) | 0.8% | 0.5 | 6.5 | 4.8 | 0.0 | 1.9
C=C(C(=O)Nc1ccccc1)c1ccc(C)cc1 | -0.6% | -1.4 | -10.3 | 12.3 | 0.1 | 29.4
COc1cc2c(cc1OC)CN(C(=O)Nc1ccccc1)CC2 | 7.3%&0.3% | 2.1 | -1.3 | -6.3 | -0.6&3.7 | 0.9&15.8
CCOC(=O)c1cc(CC)sc1NC(=O)c1ccc(N2C(=O)CCC2=O)cc1 | -5.3%[38.3 µM] | -1.0 | -6.0 | 9.0 | -0.5 | -10.5
COc1ccc(/C=N/Nc2nnc(C)n2N)cc1OC | -0.7% | u | 56.7* | u | -1.2 | 31.5
CC(=O)c1cccc(OCC(O)CNCC2COc3ccccc3O2)c1 (configuration not stated) | -1.7% | u | 2.5 | -3.8 | -0.4 | 4.7
CCC(C)(c1ccc(C(=O)OC)s1)c1ccc(C(=O)OC)s1 | 6.9% | -0.9 | -1.0 | 25.8 | 2.3 | 36.1
CC(C)C[C@H](NC(=O)N1CC(=O)Nc2ccccc21)C(=O)N[C@H](Cc1c[nH]c2ccccc12)C(=O)O | -0.7% | -5.6 | -27.9 | 6.0 | x | x
CC(C)OCCCNC(=O)CN1C(=O)c2cccc3cccc1c23 | -0.1% | -2.1 | -5.7 | 12.4 | 0.2 | 6.4
c1ccc(-c2cnn3c(-c4ccccc4)c(-c4ccccc4)nc3n2)cc1 | u | -3.2 | -9.3 | 31.7 | 79.0* | -25.3
CN(C)/C=N/NC(=O)C1Cc2c(ccc3ccccc23)O1 (configuration not stated) | 3.5% | 3.7 | -17.4 | 3.5 | 0.3 | 5.3
CCCCC(=O)Nc1nnc(S(=O)(=O)N2CCCCCC2)s1 | 2.5%&0.8% | 0.6 | -2.3 | 1.2 | -0.3&0.4 | 11.8&2.1
Cc1ccc(OCCCC(=O)Nc2sc3c(c2C(N)=O)CCC(C)C3)cc1 (configuration not stated) | 5.6% | x | x | x | -0.3 | 14.5
c1ccc2c(c1)CSc1sccc1C2=C1CCNCC1 | -0.3% | -1.8 | -24.7 | -24.7 | u | -22.5
COc1ccc(S(=O)(=O)N2CCCN(S(=O)(=O)c3ccc(OC)cc3C)CC2)c(C)c1 | -1.4%[38.3 µM] | -3.0 | -11.0 | -3.9 | 0.3 | 10.1
O=C(Nc1ccc(Cl)c(C(F)(F)F)c1)NC1CC2CCCC(C1)N2Cc1ccccc1 (configuration not stated) | -1.6% | -3.2 | -9.1 | 5.9 | 2.0 | 5.1
CCCc1ccc(OCC(O)CN2CCN(C(=O)OCC)CC2)cc1 (configuration not stated) | -0.9% | 1.5 | -13.5 | 0.9 | 0.4 | 5.4
O=c1c2c(-c3ccc([N+](=O)[O-])cc3)csc2nc2n1CCC2 | -0.4% | -0.3 | -5.3 | -1.5 | -1.0 | 5.5
Cc1cccc(NC(=O)C2CCC(CNS(=O)(=O)c3ccc(Br)s3)CC2)c1 (configuration not stated) | -0.2% | x | x | x | 1.6 | -3.0
O=S(=O)(N/N=C/c1ccccc1F)c1ccccc1 | 0.3% | -3.8 | -12.5 | 4.0 | -0.2 | 2.3
CCCNC(=O)c1cc(C2CCCCN2C(=O)c2ccc(OC)cc2)on1 (configuration not stated) | -0.3% | -2.7 | -8.1 | 3.7 | -1.1 | x
COc1cc(CNCCO)ccc1OCC(=O)Nc1ccc(Br)cc1 | -2.4%[38.3 µM] | -0.4 | -10.3 | 0.0 | 0.1 | -7.2
COc1ccccc1NS(=O)(=O)c1cc(NC(=O)c2ccncc2)ccc1N1CCCC1 | -0.1% | 1.8 | 7.5 | -22.2 | 0.9 | 28.3
NC1=NC(c2cccc(O)c2)n2c(nc3ccccc32)N1 (configuration not stated) | -0.6%[38.3 µM] | -1.5 | -12.7 | -1.9 | 0.0 | -24.9
O=C(NCCN1C(=O)C2C3C=CC(C3)C2C1=O)N1CCCCC1 (configuration not stated) | -0.5% | 0.0 | 0.8 | 5.6 | 0.5 | 0.3
Cn1cnnc1SCC(=O)Nc1ccc(N2CCOCC2)cc1 | 0.0% | -1.4 | -0.2 | 0.1 | 0.0 | -12.3
O=C(c1ccco1)N1CCN(C(=O)c2ccccc2[N+](=O)[O-])CC1 | -0.1% | 3.9 | -5.5 | 8.1 | 0.6 | 21.1
CCOC(=O)N1CC=C2C(C#N)=C(N)C(C#N)(C#N)[C@H](c3ccc(OC(C)C)c(OCC)c3)[C@H]2C1 | 17.4% | -9.9 | -25.9 | -7.4 | 2.3 | 0.8
O=C(NCC1CCCCC1)c1ccc2nc([C@H]3C[C@H](O)[C@@H](CO)O3)[nH]c2c1 | 1.9% | -3.7 | -10.2 | 8.0 | 0.6 | 15.8
COc1cccc(NC(=O)CSc2nc(N)cc(N)n2)c1 | x | -3.7 | -2.5 | -16.4 | 0.4 | -0.5
N#C/C(=C\c1cccs1)C(=O)Nc1ccccn1 | 3.6% | 0.6 | -4.0 | 4.4 | 0.8 | 11.0
CCOC(=O)CSc1nc(N)c(C#N)c(CC(C)C)c1C#N | 1.9% | -0.5 | -6.6 | 3.5 | 0.8 | -9.5
Cc1c(NS(=O)(=O)c2cccs2)cccc1-c1nc2cccnc2s1 | 3.0% | 1.8 | -11.5 | 2.6 | 0.5 | -7.2
CC(C)C[C@@H](CN1CCCC1CN1C(=S)NC[C@@H]1Cc1ccccc1)N1C[C@H](Cc2ccccc2)N(CCc2ccccc2)C1=S (some centres not stated) | 3.3% | x | x | 10.7 | -0.1 | x
CCN(CC)c1ccc(NC(=O)C(NS(=O)(=O)c2cccs2)C(C)C)c(C)c1 (configuration not stated) | 6.2% | x | x | x | 0.5 | -2.4
CC1=CC(C)[C@H](/C=N/n2c(=O)[nH]c3c([nH]c4ccc(C)cc43)c2=O)C(C)C1 (some centres not stated) | 2.9% | 0.6 | -4.3 | -8.8 | -1.5 | 4.4
C=CCNC(=S)N1CCC(C(=O)c2ccc(C)cc2)CC1 | 0.6% | -1.0 | -8.6 | 7.5 | 0.9 | -4.9
Cc1ccccc1S(=O)Cc1ccc(C(=O)N2CCN(C3CCCCC3)CC2)o1 (configuration not stated) | 0.0% | -0.1 | -16.7 | 3.7 | 0.6 | -6.3
Cc1nc(CNS(=O)(=O)c2cccc(F)c2)cs1 | -2.2%[38.3 µM] | -0.1 | -7.7 | 2.1 | 0.7 | 25.6
CNc1nc(N)c([N+](=O)[O-])c(Nc2cccc(Cl)c2)n1 | -0.6% | -1.7 | 2.3 | -6.0 | 1.1 | 28.8
OCCCc1cn(Cc2ccccc2)c2ccccc12 | 8.1% | 2.6 | -21.8 | -20.3 | 0.5 | -2.2
COc1ccc(CNC(=O)CCCCCNc2nc(=S)[nH]c3ccccc23)cc1 | 1.7% | -2.8 | -46.1 | u | -0.6 | 3.0
CN(Cc1nc(-c2ccc(Cl)cc2)no1)C(=O)c1ccc2c(c1)OCO2 | 3.5% | -0.3 | 5.4 | -0.3 | 0.2 | -4.7
